Lassa entry inh – blocks Lassa virus binding to or entry into cells | Lassa virus pseudotype entry inhibition, cell reporter; control for the full effect not named in the record | Potency, µM (series often up to 37.9 µM), inactives show top-dose activity change, negative = inhibition, hits mostly inhibitors | 300,000 compounds, 1.2% hits | AID 540256; active means well fitted inhibition curve with a large enough effect; inconclusive means small, poorly fitted or top-dose-only effect, or effect the other way; inactive means flat fitted curve, though single readings scatter; tested in HEK293 cells; note: % is set by controls: 0 for no effect and ±100 for the full control effect; nearly all actives have a fitted effect of over 50% in size; luciferase read-out
SARS PLP yeast – inhibitors of SARS-CoV papain-like protease in yeast; S. cerevisiae expressing SARS-CoV PLpro, growth rescue; control for the full effect not named in the record; Potency, µM (series often up to 32.9 µM), for the others: at the highest dose activity, positive = growth rescue; 330,000 compounds, 0.19% hits; note: 0% is about no effect; nearly all actives have a fitted effect of over 55% in size; growth read by luminescence after 48 h
NS1 inh – inhibitors of influenza NS1 protein function. S. cerevisiae slowed by influenza A NS1, growth recovery by OD600. Potency, µM (top dose mostly 46.1 µM), for inactives: at the highest dose activity, positive = more growth. 270,000 compounds, 0.4% hits. AID 2326; note: actives are rising curves; nearly all actives have a fitted effect of over 50% in size
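Read-out: OD600 growth recovery of NS1-expressing budding yeast. Cells grown overnight at 30C in -URA glucose medium, washed, resuspended and diluted 1:100 in 2% galactose assay medium, pH 6.0. Same strain lacking NS1 served as positive control.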
2A StopGo – lowers the luciferase signal of an FMDV 2A StopGo reporter; Potency, µM (top dose mostly 57.9 µM), inactives show at the highest dose signal change, negative = less light; human cells with a luciferase reporter of 2A StopGo recoding; control for the full effect not named in the record; 410,000 compounds, 1.2% hits; AID 1159524; active = well fitted falling curve with a large enough effect; inconclusive = small, poorly fitted or top-dose-only effect; inactive = no such curve, though single readings can be large or run the other way; tested in HEK293T cells; note: % is set by controls: 0 for no effect and ±100 for the full control effect; nearly all actives have a fitted effect of over 45% in size; luciferase light after 4 h
Cruzain inh Det – blocks cruzain activity in presence of Triton detergent | 200,000 compounds, 0.43% hits | P25779 | Potency, µM, inactives show max response, negative = inhibition, usual class: inhibitors | purified cruzain, Z-FR-AMC fluorescence, 0.01% Triton; active = well fitted curve in the direction sought with a large enough effect; inconclusive = small, poorly fitted or top-dose-only effect, or another doubt; inactive = no such curve, though single readings can be large; an effect the other way counts as inactive or inconclusive;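 note: plate controls were neutral wells for no effect and buffer without enzyme for full effect; nearly all actives have a fitted effect of over 40% in size; top concentration of the series not given in the record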
Target sequence (P25779 123-467 limits assumed): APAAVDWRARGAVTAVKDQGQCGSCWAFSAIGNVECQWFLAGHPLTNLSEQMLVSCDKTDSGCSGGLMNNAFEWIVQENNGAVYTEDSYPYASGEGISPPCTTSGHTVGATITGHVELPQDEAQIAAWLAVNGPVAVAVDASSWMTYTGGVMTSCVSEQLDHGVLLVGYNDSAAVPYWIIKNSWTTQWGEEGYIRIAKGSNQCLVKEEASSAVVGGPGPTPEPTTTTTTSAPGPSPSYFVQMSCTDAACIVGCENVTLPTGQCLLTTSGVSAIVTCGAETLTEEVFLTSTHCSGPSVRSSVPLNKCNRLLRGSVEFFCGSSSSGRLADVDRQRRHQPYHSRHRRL
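Z-FR-AMC hydrolysis (2 uM substrate) by cruzain (1.5 nM) monitored kinetically at ex 360/em 450 nm after 15 min room-temperature compound exposure; 0.01% Triton X-100, pH 5.5, 5 mM DTT.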
RE007 growth inh – less growth of the S. pombe RE007 Vpr strain; 360,000 compounds, 0.21% hits; S. pombe RE007 Vpr strain, BacTiter-Glo ATP luminescence, 24 h; control for the full effect not named in the record; Potency, µM (series often up to 92.2 µM), for the others: at the highest dose activity change, negative = less growth; active = well fitted falling curve with a large enough effect; inconclusive = small, poorly fitted or top-dose-only effect; inactive = no such curve, though single readings can be large or run the other way;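 note: % is set by controls: 0 for no effect and ±100 for the full control effect; nearly all actives have a fitted effect of over 50% in size; the assay follows cell death caused by Vpr and the record does not say whether a fall means rescue or toxicity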
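Fission yeast RE007 carrying one integrated HIV-1 vpr copy, seeded at OD 0.01 in PMG+AL medium with 23 nL pinned compound. Grown 24 h at 30 degrees; viability read by BacTiter-Glo luminescence after 5 min.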
Cruzain noTriton – blocks cruzain activity in detergent-free assay; P25779; purified cruzain, Z-FR-AMC fluorescence, no detergent; Potency, µM, for inactives: max response, negative = inhibition, usual class: inhibitors; 200,000 compounds, 2.3% hits; AID 1476; active = well fitted curve in the direction sought with a large enough effect; inconclusive = small, poorly fitted or top-dose-only effect, or another doubt; inactive = no such curve, though single readings can be large; an effect the other way counts as inactive or inconclusive;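 note: plate controls were enzyme without inhibitor for no effect and buffer without enzyme for full effect; nearly all actives have a fitted effect of over 40% in size; top concentration of the series not given in the record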
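Detergent-free condition (0.00005% Triton X-100) in acetate buffer pH 5.5 with DTT. 1.5 nM enzyme and compound were pre-mixed 15 min, then 2 uM Z-FR-AMC substrate added; reaction progress from fluorescence change between first and third reads (60 s).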
MARV entry inh – Marburg virus entry inhibition; 300,000 compounds, 1.8% hits; AID 540276; Potency, µM (highest dose often 37.8 µM), for the others: top-dose activity change, negative = inhibition, actives largely listed as inhibitors; Marburg virus pseudotyped entry inhibition, cell reporter; control for the full effect not named in the record; about a third of the inactives were read at about 46 µM; active = well fitted inhibition curve with a large enough effect; inconclusive = small, poorly fitted or top-dose-only effect, or effect the other way; inactive = flat fitted curve, though single readings scatter; tested in HEK293 cells; about a fifth of its hits are not listed in these tables; note: % is set by controls: 0 for no effect and ±100 for the full control effect; luciferase read-out
Active calls of the source: *; & = joins results of further samples; [ ] = dose if it differs, or a comment. Unless noted, calls come from the whole dose curve; as a rule, active means well fitted rising curve with a large enough effect; inconclusive means small, poorly fitted or top-dose-only effect; inactive means no such curve, though single readings can be large or run the other way. Potency is the fitted concentration of half-maximal effect. Hits appear at their usual frequency (roughly 4.7% active in at least one column).

`Cc1cccc(N2C(=O)CN(Cc3cccs3)C2=S)c1` gave Lassa entry inh 26%, SARS PLP yeast -5%, 2A StopGo 4%, RE007 growth inh 34% and MARV entry inh 8%.
For CN1C(C(=O)c2ccccc2)=C(OC(=O)c2ccc(Br)cc2)c2ccccc2S1(=O)=O the results were Lassa entry inh 14%[46.1 µM], 2A StopGo inconclusive, Cruzain inh Det -5.8%, Cruzain noTriton inconclusive and MARV entry inh -9%[46.1 µM].
Screening c1ccc(Nc2cc(-c3ccccc3)nc3ncnn23)cc1 returned Lassa entry inh 16%, SARS PLP yeast -3%, NS1 inh -9%, 2A StopGo -17%, Cruzain inh Det -5.5%, RE007 growth inh 2%, Cruzain noTriton 5% and MARV entry inh inconclusive.
Screening CSc1ccccc1NC(=O)CN(C)C(C)C(=O)NC(=O)NC1CCCCC1 (stereo not given) returned Lassa entry inh -25%, SARS PLP yeast 0%, 2A StopGo -17%, RE007 growth inh 2% and MARV entry inh 0%[46.1 µM].
`CC(OC(=O)CCc1nc2ccccc2c(=O)[nH]1)C(=O)c1ccc(Br)cc1` (stereo not given) gave Lassa entry inh 2%, SARS PLP yeast 20%, NS1 inh 10%, 2A StopGo -17%, Cruzain inh Det -4.7%, RE007 growth inh 0%, Cruzain noTriton 8% and MARV entry inh 3%.
Screening O=C(Cn1cc(F)c(=O)[nH]c1=O)NCCO returned Lassa entry inh 15%, SARS PLP yeast -5%, 2A StopGo -14%, RE007 growth inh -11% and MARV entry inh 13%.
`CCCN1Cc2cccc(C(=O)Nc3ccc(OC)cc3OC)c2C1=O` gave Lassa entry inh 0%[46.1 µM], 2A StopGo 0%, Cruzain inh Det -4.7%, Cruzain noTriton -4% and MARV entry inh -4%[46.1 µM].
COCCNC(=O)/C(C#N)=C/c1ccc(SC)cc1 was read as Lassa entry inh 0%[46.1 µM], SARS PLP yeast -3%, 2A StopGo 19%, RE007 growth inh -8% and MARV entry inh -3%[46.1 µM].
`O=C(NCC1CCCN(C(=O)c2cccnc2)C1)c1ccc(-c2ccccc2)cc1` (stereo not given) gave Lassa entry inh inconclusive, SARS PLP yeast 1%, NS1 inh -3%, 2A StopGo -21%, RE007 growth inh 4% and MARV entry inh 0%[46.1 µM].
Screening O=C(CNC(=O)c1ccccc1)N/N=C/c1ccc([N+](=O)[O-])o1 returned Lassa entry inh -24%, SARS PLP yeast 9%, NS1 inh 3%, 2A StopGo 0%, Cruzain inh Det -5.0%, RE007 growth inh -6%, Cruzain noTriton 0% and MARV entry inh -38%.
For CCOC(=O)c1cc2c(ccn2C)n1Cc1ccccc1C the results were Lassa entry inh 2%, SARS PLP yeast -13%, NS1 inh -11%, Cruzain inh Det -6.3%, RE007 growth inh -5%, Cruzain noTriton -3% and MARV entry inh -20%.
`O=C(Nc1cnccn1)c1cccc(C(F)(F)F)c1` gave Lassa entry inh 11%, SARS PLP yeast -8%, NS1 inh -39%, 2A StopGo 24%, Cruzain inh Det 5.8%, RE007 growth inh 7%, Cruzain noTriton 10% and MARV entry inh -1%.
For Cc1cc(C(=O)NCc2ccccc2)c2c(C)nn(-c3cccc(F)c3)c2n1 the results were Lassa entry inh 2%[46.1 µM], 2A StopGo 0%, Cruzain inh Det -13% and Cruzain noTriton -10%.
`COc1cc(/C=C/c2nc3ccccc3c(=O)n2-c2ccc(Br)c(C)c2)ccc1O` gave Lassa entry inh inconclusive, 2A StopGo -9%, Cruzain inh Det 0.5% and Cruzain noTriton -4%.
Screening O=C(NCCCN1CCCC1=O)c1ccc2c(c1)NC(=O)C(N1CCOCC1)S2 (stereo not given) returned Lassa entry inh -3%, SARS PLP yeast 2%, NS1 inh 2%, 2A StopGo -4%, Cruzain inh Det -2.7%, RE007 growth inh 6%, Cruzain noTriton -9% and MARV entry inh 28%.
For CCOC(=O)C1=C(C)Nc2ncnn2C1c1cc(Br)ccc1F (stereo not given) the results were Lassa entry inh inconclusive, SARS PLP yeast -10%, NS1 inh -6%, 2A StopGo inconclusive, Cruzain inh Det -4.2%, RE007 growth inh -2%, Cruzain noTriton -9% and MARV entry inh inconclusive.
CCOC(=O)Cn1c(=O)n(CC2CCCO2)c2nc(-c3cccc(C)c3)nc(C(N)=O)c21 (stereo not given) was read as Lassa entry inh 4%[46.1 µM], 2A StopGo inconclusive, Cruzain inh Det -3.2% and Cruzain noTriton 0%.
Screening Cc1cccc(C(=O)NC(=S)NNC(=O)COc2ccc(Cl)cc2)c1 returned Lassa entry inh 2%[46.1 µM], SARS PLP yeast 0%, NS1 inh -38%, 2A StopGo -12%, RE007 growth inh 18% and MARV entry inh 4%[46.1 µM].
Screening COc1ccccc1/C=N/NC(=O)Cn1cnc([N+](=O)[O-])n1 returned Lassa entry inh 2%, SARS PLP yeast 4%, 2A StopGo 8%, RE007 growth inh 1% and MARV entry inh 1%[46.1 µM].
CCOP(=O)(OCC)C(NC(=O)Nc1ccc(Cl)cc1)C(N)=O (stereo not given) was read as Lassa entry inh -8%, SARS PLP yeast 19%, NS1 inh -2%, 2A StopGo -5%, Cruzain inh Det -2.0%, RE007 growth inh -11%, Cruzain noTriton -4% and MARV entry inh inconclusive.
CCc1ccccc1NC(=O)CCS(=O)(=O)c1ccc2c(c1)CCCN2C(C)=O was read as SARS PLP yeast 3%, NS1 inh -1%, 2A StopGo 24% and RE007 growth inh -1%.
Screening Cc1cccc(-c2nnc(SCC(=O)Nc3cc(C)on3)n2C)c1 returned Lassa entry inh 3%[46.1 µM], SARS PLP yeast 0%, NS1 inh 0%, 2A StopGo 30%[activator], RE007 growth inh 2% and MARV entry inh -17%[46.1 µM].
CCOc1ccc(CN2CCN(Cc3nc4c(s3)CCCC4)CC2CCO)cc1 (stereo not given) was read as SARS PLP yeast 0%, NS1 inh 1%, 2A StopGo -2% and RE007 growth inh 7%.
For Cc1ccc(C2(C)NC(=O)N(CC(=O)Nc3ccc4[nH]c(=O)[nH]c4c3)C2=O)cc1 (stereo not given) the results were SARS PLP yeast -1%, NS1 inh 9%, 2A StopGo -10% and RE007 growth inh 2%.
For CCOc1cc2[nH]c(=O)n(CCc3ccc(OC)c(OC)c3)c(=O)c2cc1OCC the results were Lassa entry inh -6%, SARS PLP yeast 1%, NS1 inh 6%, 2A StopGo 5%, Cruzain inh Det 0.8%, RE007 growth inh 8%, Cruzain noTriton inconclusive and MARV entry inh -15%.
`COC(=O)CSc1nc(N2CCCCC2)c2c(c1C#N)CCCC2` gave Lassa entry inh 0%, SARS PLP yeast -15%, NS1 inh -61%, 2A StopGo -11%, Cruzain inh Det -5.7%, RE007 growth inh -22%, Cruzain noTriton -13% and MARV entry inh -17%.
`COc1cccc(NC2=NC3(CCCCC3)N=C(N)N2)c1` gave Lassa entry inh 14%, SARS PLP yeast 2%, NS1 inh 3%, 2A StopGo inconclusive, Cruzain inh Det 0.8%, RE007 growth inh -24%, Cruzain noTriton -3% and MARV entry inh -8%.
`Cn1c(OCc2ccc3c(c2)OCO3)nc2c1c(=O)n(Cc1ccc(Cl)c(Cl)c1)c(=O)n2C` gave Lassa entry inh -9%, SARS PLP yeast -3%, NS1 inh -42%, 2A StopGo 0%, Cruzain inh Det -6.8%, RE007 growth inh 4%, Cruzain noTriton inconclusive and MARV entry inh 2%[46.1 µM].
`COc1cccc(CN2CCNC(=O)C2CC(=O)N(C)CC2CCOCC2)c1` (stereo not given) gave Lassa entry inh -3%, SARS PLP yeast 4%, NS1 inh 9%, 2A StopGo -17%, RE007 growth inh -13% and MARV entry inh 15%.
`Cc1ccc(N(C)S(=O)(=O)c2ccc3[nH]c(=O)ccc3c2)cc1` gave Lassa entry inh 7%[46.1 µM], 2A StopGo 4%, Cruzain inh Det -6.2% and Cruzain noTriton 19%.
Cc1cccc(NC(=S)N(CCc2nc3cc(C)c(C)cc3[nH]2)Cc2cccnc2)c1 was read as Lassa entry inh -5%, SARS PLP yeast 6%, NS1 inh -1%, Cruzain inh Det 1.2%, RE007 growth inh -1%, Cruzain noTriton -1% and MARV entry inh -16%.
COc1ccccc1NS(=O)(=O)c1cccc(C(=O)N/N=C/c2ccccc2OCC(=O)O)c1 was read as Lassa entry inh -2%[46.1 µM], SARS PLP yeast 0%, 2A StopGo -5%, RE007 growth inh -4% and MARV entry inh 2%[46.1 µM].
`O=C(c1ccc(C(=O)N2CCN(c3ccccc3F)CC2)nc1)N1CCN(c2ccccc2F)CC1` gave SARS PLP yeast 0%, NS1 inh -5%&1%, 2A StopGo -11% and RE007 growth inh 0%.
O=C(NCCSc1c[nH]c2ccccc12)c1ccccc1Cl was read as Lassa entry inh 15%[46.1 µM], 2A StopGo -14%, Cruzain inh Det -9.3%, Cruzain noTriton 0% and MARV entry inh -2%[46.1 µM].
For CCOC(=O)Nc1ccc2c(c1)N(C(=O)CCN1CCN(CCO)CC1)c1ccccc1S2 the results were Lassa entry inh -11%, 2A StopGo 10%, RE007 growth inh 0% and MARV entry inh 10%.
`COc1ccccc1N1CCN(C(=O)CCn2c(=O)[nH]c3ccccc3c2=O)CC1` gave Lassa entry inh 1%, SARS PLP yeast 0%, NS1 inh 5%, 2A StopGo -9%, Cruzain inh Det 1.7%, RE007 growth inh 2%, Cruzain noTriton 17% and MARV entry inh 2%.
Screening COc1ccc(N2C(=O)N3[C@H](c4ccc(Br)cc4)[C@@H]4C(=O)N(C(C)(C)C)C(=O)[C@@H]4[C@]3(Cc3ccccc3)C2=O)cc1 returned SARS PLP yeast 2%, NS1 inh 8%, 2A StopGo -12% and RE007 growth inh 7%.
Screening Cc1ccc(S(=O)(=O)N2CCN(C(=O)c3ccc4nc[nH]c4c3)CC2)cc1 returned Lassa entry inh -9%, SARS PLP yeast -1%, 2A StopGo -6%, RE007 growth inh -18% and MARV entry inh -3%[46.1 µM].
Screening O=C(NCCc1ccc(Cl)cc1)C(=O)Nc1cc2c3c(c1)CC(=O)N3CCC2 returned Lassa entry inh 1%, SARS PLP yeast 3%, 2A StopGo -26%, RE007 growth inh -16% and MARV entry inh 5%.
